Hsc70 – small molecules displacing fluorescent ligand from Hsc70 – biochemical, fluorescence polarization, primary screen (AID 568); Hsc70 fluorescence polarization, probe displacement; higher % means a stronger effect; strong numbers were not always called active; displacement, % at 20 µM, or IC50 in µM where a hit was titrated; 83,000 tested, under 10 active;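 active means displacement above 50% without optical interference and an IC50 on retest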;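 further: ATPase domain with a fluorescein-tagged ATP probe; 0% = vehicle and 100% = excess ADP; read after one hour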
WNV protease inh – WNV NS2B-NS3 proteinase inhibition | actives 0.18% (n = 65,000) | P06935 | z-score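 (tested at a level between 10 and 100 µM)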 | WNV NS2B-NS3 protease, fluorogenic substrate Ex360/Em465; active compounds read low | AID 577;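 active means z-score at -3 or under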;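 further: score is relative to mean and spread of the compound wells of a plate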
Target sequence (P06935 1371-1501 limits assumed): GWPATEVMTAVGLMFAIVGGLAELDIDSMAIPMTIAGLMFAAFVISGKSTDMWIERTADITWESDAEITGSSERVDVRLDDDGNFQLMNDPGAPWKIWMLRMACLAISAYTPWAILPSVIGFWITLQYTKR
Target sequence (P06935 1502-1679 limits assumed): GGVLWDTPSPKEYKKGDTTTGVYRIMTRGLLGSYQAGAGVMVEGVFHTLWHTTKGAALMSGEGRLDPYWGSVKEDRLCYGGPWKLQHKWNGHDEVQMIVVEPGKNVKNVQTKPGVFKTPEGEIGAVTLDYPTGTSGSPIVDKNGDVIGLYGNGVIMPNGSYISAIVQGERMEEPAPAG
MT1-MMP reporter – MT1-MMP gene expression reporter suppression – cell-based, luciferase reporter, luminescence (AID 618) | actives 0.62% (n = 87,000) | calls from a first round at 10 µM; hits with a dose series show EC50 in µM | MT1-MMP promoter luciferase reporter cells, luminescence;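 active means over half of the reporter light lost at 10 µM or EC50 under 50 µM; inactive means the rest and hits that failed the dose series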;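 further: actives suppress MT1-MMP promoter-driven transcription so potencies describe inhibitors; HT1080 fibrosarcoma cells; overnight exposure; toxic or luciferase-blocking compounds were not removed from the actives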
Starred values were filed as active, the others as inactive; i = inactive; . = no result given.

SMILES | Hsc70 | WNV protease inh | MT1-MMP reporter
CC(C)CCOc1ccc(C2(C)NC(=O)N(CN3CCOCC3)C2=O)cc1 (stereo unspecified) | -1.1% | 0.1 | i
CCOC(=O)C1=C(C)Nc2nnnn2C1c1ccc(OC)c(Br)c1 (stereo unspecified) | 4.1% | 0.86 | i
O=S(=O)(NCCc1csc(-c2cccnc2)n1)c1ccc(Cl)s1 | -3.1% | -0.96 | i
Cc1cc(S(=O)(=O)NC2CCCCC2)ccc1OCC(=O)NCc1ccccn1 | -0.3% | -0.0087 | i
CN(C)S(=O)(=O)c1ccc(N2CCN(S(=O)(=O)c3ccc(F)cc3)CC2)c(Cl)c1 | -0.1% | 0.17 | i
COc1ccc(S(=O)(=O)N2CCSC2c2ccc(N)cc2)cc1 (stereo unspecified) | 2.5% | -0.35 | i
COc1ccc2nc(SCC(=O)Nc3ccccc3C#N)[nH]c2c1 | -10% | 1.3 | i
O=C1CC(c2ccccc2)Cc2nc3ncnn3cc21 (stereo unspecified) | -2.7% | . | i
O=C(O)CSC1CC(=O)N(c2ccc(Cl)c(Cl)c2)C1=O (stereo unspecified) | -7.1% | -0.47 | i
C/C(N)=C(/C#N)C(=O)COC(=O)CSc1ccccc1 | 1.9% | -0.2 | i
CCN(C(=O)c1cc2ccccc2oc1=O)c1ccccc1 | 2.7% | . | i
Cc1nc2ccccc2c2oc(C(=O)N3CCc4ccccc4C3)cc12 | 0.5% | -0.52 | i
O=S(=O)(Nc1nc2c(s1)CCCC2)c1ccc(F)cc1 | 0.6% | . | i
CCCn1c(N2CCN(CC(=O)Nc3ccc4c(c3)OCCO4)CC2)nc2ccccc21 | 3.5% | 0.46 | i
Cc1ccc(C(=O)NCC2CCCO2)cc1N1CCCC1=O (stereo unspecified) | 2.0% | -1.1 | i
CC1OC(Nc2ccc(OC(F)(F)F)cc2)C(O)C(O)C1O (stereo unspecified) | 1.2% | 2 | i
CN1CCN(S(=O)(=O)c2ccc(Sc3nnc(-c4cccs4)n3-c3ccccc3)nc2)CC1 | 2.4% | -0.23 | i
Cc1ccc(Cn2nnc3c(=O)[nH]c(C4CCCN(C(=O)Nc5ccc(F)cc5F)C4)nc32)cc1 (stereo unspecified) | -0.7% | . | i
Cn1c(SCC(=O)Nc2nc3c(s2)CCCC3)nnc1-c1ccccc1 | -3.5% | 0.03 | i
CCOC(=O)c1c(NC(=O)CSc2n[nH]c(N)n2)sc(CC)c1C | -9.5% | -1.1 | i

Quoted at random: 5 entries already listed
SMILES | Hsc70 | WNV protease inh | MT1-MMP reporter
CCN(C(=O)c1cc2ccccc2oc1=O)c1ccccc1 | 2.7% | . | i
CN(C)S(=O)(=O)c1ccc(N2CCN(S(=O)(=O)c3ccc(F)cc3)CC2)c(Cl)c1 | -0.1% | 0.17 | i
COc1ccc(S(=O)(=O)N2CCSC2c2ccc(N)cc2)cc1 (stereo unspecified) | 2.5% | -0.35 | i
O=C1CC(c2ccccc2)Cc2nc3ncnn3cc21 (stereo unspecified) | -2.7% | . | i
O=S(=O)(NCCc1csc(-c2cccnc2)n1)c1ccc(Cl)s1 | -3.1% | -0.96 | i

More records.
SMILES | Hsc70 | WNV protease inh | MT1-MMP reporter
O=C(/C=N/O)NCC1CCNCC1 | -5.3% | -1.2 | i
C/C(=C\C(=O)c1ccncc1)Nc1ccccc1O | -2.3% | 0.84 | i
Cc1sc2nc3ccc(N4CCCCC4)nn3c(=O)c2c1C | -6.7% | -2.6 | i
COc1nnc(-c2ccc(N3CCOCC3)c(NC(=O)c3ccccc3)c2)c2ccccc12 | -4.1% | . | i
Cc1nc(SCC(=O)N2CCN(c3ccccc3)CC2)c2oc3ccccc3c2n1 | -5.3% | -0.75 | i
O=C(c1ccco1)N1CCN(/C(=N/S(=O)(=O)c2cccs2)c2ccccc2Cl)CC1 | -1.1% | -0.39 | i
COC(=O)c1cc(=O)cc(C(=O)OC)o1 | 1.5% | . | i
CCC(=O)Nc1c(C(=O)Nc2cccc(OC)c2)oc2ccccc12 | 6.0% | -0.4 | i
CCC(=O)Nc1ccc(C(=O)Nc2cccnc2)cc1 | -0.5% | 2.2 | i
CCOc1ccc(C2CC(c3ccccc3C)n3ncnc3N2)cc1 (stereo unspecified) | -1.9% | -1 | i
COc1ccccc1C(=O)Nc1nc2nc(-c3ccccc3)cc(=O)n2[nH]1 | 0.2% | . | i
CCn1c(SCC(=O)N2CCCc3ccccc32)nc2c1c(=O)n(C)c(=O)n2C | 1.0% | -1.1 | i
CC(C)(C)OC(=O)N1CCC[C@H]1c1nnc(SC/C=C/c2ccccc2)o1 | -6.3% | 0.76 | i
CCSc1nnc(NC(=O)c2cc(C)nc3ccccc23)s1 | -1.2% | . | i
COC(=O)CN(c1ccccc1F)S(=O)(=O)c1ccccc1 | 2.4% | -0.74 | i
O=C(CCC1CCCC1)N1CCN(C(=O)c2cccnc2)CC1 | -1.0% | 0.72 | i
O=C1CCC(=O)N1CCCCCc1nc(-c2ccccc2)no1 | 6.8% | -0.18 | i
COC(=O)C1=C(C)Nc2c(c(=O)n(C)c(=O)n2C)C1c1cccnc1 (stereo unspecified) | -0.6% | . | i
Cc1ccc(-c2noc(CCC(=O)NCC3CCN(Cc4cccc(C)c4)CC3)n2)cc1 | -2.1% | -0.4 | i
CCOC(=O)c1c(C)n(C)c2ccc(OCC(O)CN3CCCCCC3)cc12 (stereo unspecified) | -0.3% | 0.06 | i
C/C(N)=C(/C#N)C(=O)CSc1nnc(NC(C)C)s1 | 0.2% | -0.64 | i
Cc1c(C(=O)O)sc2nc(C)n(C)c(=O)c12 | -1.6% | 0.71 | i
COC(=O)c1ccc(C2c3c(n[nH]c3C)C(=O)N2c2ccc(C)cc2)cc1 (stereo unspecified) | 0.4% | 1.1 | i
CN(C)C(CNC(=O)Nc1cccc(Cl)c1)c1cccnc1 (stereo unspecified) | 9.0% | 0.85 | i
Cc1nc2cc(Cl)ccc2n1CCO | -7.8% | 0.82 | i
Cc1ccc(S(=O)(=O)NC(=O)Nn2c(C)nnc2C)cc1 | -6.6% | -0.66 | i
COc1cc2c(cc1OC)C(c1cc3ccccc3oc1=O)=NC(C)(C)C2 | -0.6% | . | i
COCCCn1c(SCC(=O)Nc2ccc(NC(=O)c3ccco3)c(OC)c2)nc2ccccc2c1=O | 3.2% | . | i
CN(C)c1ccnc2sc(C(N)=O)c(N)c12 | 5.9% | . | i
COc1ccc(OC)c(NC(=O)C2=C(C)Nc3ncnn3C2c2cccs2)c1 (stereo unspecified) | 0.5% | 0.13 | i
O=C(OCC#CCSc1nnc(-c2cccc3ccccc23)o1)c1ccco1 | 0.5% | . | i
COc1cccc(C2CC(C(F)(F)F)n3nc(C(=O)NCc4cccnc4)cc3N2)c1 (stereo unspecified) | -0.8% | 0.02 | i
c1cnn(-c2cc(N3CCOCC3)ncn2)c1 | -1.1% | -0.01 | i
CC1CN(C(=O)C(C)N2C(=O)c3ccccc3C2=O)CC(C)O1 (stereo unspecified) | 4.8% | -0.03 | i
CCO/C(C)=N/n1c2nc3ccccc3nc2c2c(=O)n(C3CCCC3)c(C)nc21 | -4.9% | -0.12 | i
CCOc1cc2c(C#N)c(N3CCOCC3)nc(N)c2c(N)n1 | 6.3% | 1.5 | i
Cc1cc(O)c(C(=O)c2ccccc2C(=O)O)cc1C | -0.6% | 1.1 | i
COc1cc(OC)c(C2=NOC(C(=O)Nc3c(C)nn(CC(=O)N4CCCC4)c3C)C2)cc1Cl (stereo unspecified) | -4.5% | 0.65 | i
CCSc1nnc2nc(C)cc(C)n12 | 1.4% | . | i
CC(=O)c1cc(CN2C(=O)c3ccccc3C2=O)cs1 | -4.8% | 0.55 | i
C1CCN(c2nc(N3CCCC3)nc(N3CCNCC3)n2)C1 | -0.2% | -0.32 | i
Cc1ccc(-n2c(N)c(C(N)=O)sc2=S)cc1 | -0.6% | -0.23 | i
O=C(Nc1ccc2nc(-c3ccc(Br)o3)[nH]c2c1)c1cccs1 | -3.0% | -2 | i
COc1cccc(CN2CCCN(S(=O)(=O)c3ccc(Br)cc3)CC2)c1 | -8.3% | -0.39 | i
CCCCOCCCNC(=O)N[C@@H](CC(C)C)C(=O)O | -8.2% | -3.7* | i
CCOC(=O)CC(=O)CSc1nc(C)cc(C)c1C#N | 7.4% | . | i
CCn1c(CSc2nc3ccccc3s2)nnc1SCC(=O)NCC(=O)OC | -3.2% | . | i
CN(Cc1nc(-c2ccncc2)no1)S(=O)(=O)c1ccc(Br)cc1 | 4.7% | 0.47 | i
CCN(CC)C(=O)C1CCCN(Cc2ccc(OC)c(C)c2C)C1 (stereo unspecified) | -2.2% | 0.21 | i
CCOC(=O)N1CCC(N2C(=O)c3cc(C(=O)NC4CCCCC4)ccc3C2O)CC1 (stereo unspecified) | 2.8% | 0.53 | i
Cc1ccc(-n2ncc3c(=O)n(CC(=O)NCC4CCCO4)cnc32)cc1 (stereo unspecified) | -3.0% | 0.19 | i
Cc1cccc(CC2CC(=O)N(C3CCCCC3)C2=O)c1 (stereo unspecified) | -6.6% | -0.7 | i
COc1ccc(S(=O)(=O)Nc2ccc(S(=O)(=O)N3CCCC3)cc2)cc1 | 0.8% | . | i
O=c1cc(-c2ccccc2)nc2nc(COc3ccccc3)[nH]n12 | 3.1% | 0.79 | i
O=C(NCc1ccccc1)c1n[nH]nc1-c1ccccc1O | -1.5% | -1.6 | i
COC(=O)C1=C(C)NC(C)=C(C(=O)OC)C1C(=O)OC1CCCCC1=O (stereo unspecified) | -0.6% | -0.97 | i
CCCC12CN3CC(C)(CN(C1)C3c1ccc3c(c1)OCO3)C2=O (stereo unspecified) | -4.0% | 0.07 | i
Cc1ccc(S(=O)(=O)Nc2cc(C(=O)O)ccc2N2CCCCC2)cc1 | 2.6% | 1.1 | i
O=Nc1c2nc3ccccc3n(O)c-2c2ccccc12 | 5.6% | -0.74 | i
Cc1ccsc1C(=O)N(c1nc2ccccc2s1)c1c(C)cccc1C | -2.7% | . | i

Profiles as entered above:
O=S(=O)(NCCc1csc(-c2cccnc2)n1)c1ccc(Cl)s1 is entered as Hsc70 = -3.1%; WNV protease inh = -0.96; MT1-MMP reporter = i
CCOC(=O)c1c(C)n(C)c2ccc(OCC(O)CN3CCCCCC3)cc12 (stereo unspecified) is entered as Hsc70 = -0.3%; WNV protease inh = 0.06; MT1-MMP reporter = i
O=c1cc(-c2ccccc2)nc2nc(COc3ccccc3)[nH]n12 is entered as Hsc70 = 3.1%; WNV protease inh = 0.79; MT1-MMP reporter = i

Next section.
SMILES | Hsc70 | WNV protease inh | MT1-MMP reporter
Cc1ccc(S(=O)(=O)Cc2ccc(C(=O)N3CCN(c4ccccn4)CC3)o2)cc1 | -2.0% | -1.1 | i
CC1Cc2ccccc2N1C(=O)c1ccc2snnc2c1 (stereo unspecified) | 0.7% | 0.75 | i
CCc1cccc(CC)c1-n1c(SCc2cc(=O)n3ccsc3n2)nnc1-c1cccnc1 | 1.6% | . | i
CCOc1cc(NC(=O)c2ccco2)c(OCC)cc1NC(=O)CCc1ccccc1OC | 1.1% | -0.28 | i
CC1CCCC(C)N1C(=O)Cn1c(SCC(=O)Nc2ccc3c(c2)OCO3)nc2ccccc21 (stereo unspecified) | 5.7% | 0.48 | i
CCOC(=O)CSc1ncnc2c1cnn2-c1ccccc1 | -4.6% | -0.97 | i
CCOC(=O)N1CCN(C(=O)CN(C2CCCCC2)S(=O)(=O)c2ccc(Cl)cc2)CC1 | -5.0% | . | i
CN(C)C(=O)N1CCN(C(=O)N(C)C)CC1 | -1.0% | -0.86 | i
O=C(CN1CCOCC1)NCCNC(=O)CN1CCOCC1 | 2.2% | 0.6 | i
COC(=O)C1=C(C)NC(C)=C(C(=O)OC)C1c1cc2ccc(C)cc2[nH]c1=O | 0.6% | -1.9 | i
CCOC(=O)c1ccc(NC(=O)CSc2nnc(C)n2-c2ccccc2)cc1 | 1.8% | -1.1 | i
S=c1[nH]nc(-c2ccccc2Cl)n1CC1CCCO1 (stereo unspecified) | 1.8% | 2.5 | i
CCOc1ccc(NC(=O)CCN2CCN(c3ccccc3)CC2)cc1 | -1.2% | 0.05 | i
Cc1noc(/C=C/N(C)C)c1S(=O)(=O)N1CCCC(C(=O)NCc2ccco2)C1 (stereo unspecified) | 2.3% | -0.48 | i
CC1CCCCN1S(=O)(=O)c1coc(C(N)=O)c1 (stereo unspecified) | -0.6% | -0.25 | i
COc1cc(NC(=O)CCCC(=O)OCC(F)(F)C(F)F)nc(OC)n1 | -3.4% | -0.38 | i
COc1cc(NC(=O)Cc2nn(C)c(=O)c3ccccc23)cc(OC)c1OC | 7.0% | . | i
S=c1[nH]nc(COc2ccccc2)n1C1CCCCC1 | 1.7% | 0.29 | i
O=C(NCCc1ccccc1)c1c(O)c2cccc3c2n(c1=O)CC3 | -2.1% | -0.46 | i
CCCCN1CCCCC1C(=O)Nc1c(C)cc(C)cc1C (stereo unspecified) | -3.8% | 0.07 | i
CC(C)OC(=O)c1nnc(Cc2ccc(Cl)cc2)o1 | 0.2% | -0.75 | i
Cc1oc(-c2ccc(Cl)cc2)nc1CN1CCCC(C(=O)NCc2ccco2)C1 (stereo unspecified) | -5.6% | 0.37 | i
